TAR Tat displ: HIV-1 TAR-Tat binding disruption | z-score (no concentration beside the values) | HIV-1 TAR RNA, Tat peptide displacement FRET; active compounds read high | 0.6% of 100,000 active | AID 1259389;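 note: score is relative to mean and SD of negative controls; some compounds called inactive have numbers as strong as hits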
CDC25B CDK2 inh: human CDC25B-CDK2/CyclinA binding inhibition. HTRF CDC25B-CDK2/CyclinA binding, anti-His/anti-Flag; active compounds read high. z-score (no concentration beside the values). 0.72% of 94,000 active. AID 1259370;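 note: score is relative to mean and SD of negative controls; strong numbers were not always called active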
Numbers without * were called inactive; · = no result given; & = joins results of further samples.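 Rule for the calls: active = z-score from 3 up in half or more of its runs; inactive = the rest.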 Compounds as they come (roughly 0.87% active in at least one column).

canonical_smiles,TAR Tat displ,CDC25B CDK2 inh
CCc1ccc(C2c3c(oc4cc(C)c(C)cc4c3=O)C(=O)N2CCCN2CCOCC2)cc1 (configuration not stated),0.4,-0.41
O=C(CSc1nc(-c2ccccc2F)nc2cc(=O)[nH]n12)NCCc1ccc(Cl)cc1,0.12,·
COc1ccc(Nc2ncnc3ccccc23)cc1,0.62,-2.4
Cc1cc(C)cc(NS(=O)(=O)c2cc3c(cc2C)NC(=O)CO3)c1,2.7,·
CS(=O)(=O)CCC(C(=O)Nc1ccc(Br)cc1)N1Cc2ccccc2C1=O (configuration not stated),0.23,·
Cc1ccc(S(=O)(=O)NC(=O)N(CCC#N)Cc2ccccc2)cc1,·,0.7
O=C(O)CSCC(=O)Nc1ccc(N2CCOCC2)nc1N1CCOCC1,·,-0.45
Cn1c(=O)c2c(-c3ccccc3)n(-c3cccc(N)c3)cc2n(C)c1=O,0.3,-1.4
CC(O)CNC(=O)C(=O)NCC1CCCO1 (configuration not stated),-1.5,-3
Cc1nnc(NC(=O)c2cc(-c3ccc4c(c3)OCCO4)on2)s1,1.5,-2.3
CCn1c(C(=O)N2CCC(C(=O)NC3CC3)CC2)cc2sccc21,-1.4,0.59
Cc1nn(CC(=O)NC2CCCC(C)C2C)c(=O)c2c1sc1ccccc12 (configuration not stated),1.2,-3.4
Cc1ccc(-c2cc3ncc4c(n3n2)-c2cc(C)ccc2OC4)cc1,0.8,1.9
Cn1ncc2c(N3CCN(C(c4ccccc4)c4ccc(Cl)cc4)CC3)ncnc21 (configuration not stated),1.1,·
Cc1cc(=O)c2ccccc2o1,·,-1.8
CCCS(=O)(=O)c1ccc2nc(NC(=O)OC)[nH]c2c1,·,0.43
CCOC(=O)c1c(NC(=O)CSc2nnc3ccccn23)sc2c1CCCC2,·,-0.65
CC1Sc2ccc(S(=O)(=O)N3CCN(c4ccccc4)CC3)cc2NC1=O (configuration not stated),0.48,·
Cc1cc2n(n1)C(c1cc(Br)ccc1O)Nc1ccccc1-2 (configuration not stated),2,-0.71
c1ccc(OCc2nc3c4c5c(sc4ncn3n2)CCCCC5)cc1,0.24,-1.2
CCc1nn2c(=O)cc(CSc3nnc(-c4ccc(OC)cc4)o3)nc2s1,0.77,-1.1
CCOc1ccc(Cc2c(C)nc(N)[nH]c2=O)cc1,0.78,-0.12
CCOC(=O)N1CCN(c2c(OCC)c(=O)c2=O)CC1,1.4,·
O=c1c(S(=O)(=O)c2ccc(F)c(Cl)c2)c[nH]c2c(F)cc(Cl)cc12,-0.51,-1.1
Cc1ccc(CN(c2nc3nc(C)cc(C)n3n2)S(=O)(=O)c2ccccc2)cc1,0.61,0.11
NC(C(=O)O)[C@@H]1CC(Cl)=NO1 (some centres not stated),2.6&0.53,·
CCS(=O)(=O)n1nc(-c2ccccc2)cc1N,·,-0.66
O=C(O)c1ccc(Cn2cccn2)o1,-0.51,-1.6
C=CCOC(=O)C1=C(C)NC2=C(C(=O)CC(C)(C)C2)C1c1ccc(OC(C)=O)cc1 (configuration not stated),-0.08,-0.85
CCc1cc2c3c([nH]c2cc1S(=O)(=O)NCc1ccco1)CC(C)(C)CC3=O,0.59,·
COCCOc1cc2ncnc(N3CCC(C(=O)O)CC3)c2cc1OCCOC,·,0.11
O=C(Nc1nccs1)c1ccc2oc(=O)n(Cc3ccc(F)cc3)c2c1,1.1,·
c1ccc2c(c1)CCN(c1c3c(nc4ncnn14)CCC3)C2,0.59,·
Cc1cccc(-c2noc(CN(C(C)C)S(=O)(=O)c3ccccc3)n2)c1,-0.04,0
Cc1cc(C)c(NS(=O)(=O)c2c(C)noc2C)c(C)c1,-0.49,-2.5
O=C(c1cccs1)N1CCN(CCN2C(=O)c3cccc4cccc(c34)C2=O)CC1,1.1,12*
CCCCNC(=O)c1sc2nc(C)cc(C)c2c1-n1cccc1,·,-1.9
N[C@@H](C(=O)N[C@@H]1C(=O)N2C(C(=O)O)=C(Cl)CS[C@H]12)c1ccccc1,1.6,·
CCN(CC)c1ccc(NC(=O)c2cnc3ccccn3c2=O)c(C)c1,-0.43,-1.8
CCN(CC)CCNC(=O)C(=O)Nc1ccc2nc3n(c(=O)c2c1)CCCCC3,·,-2.5
CCOc1ncnc2c1[nH]c1ccc(F)cc12,0.38,-0.43
CC1CCN(C(=O)C2CCN(c3nc4ccccc4n4cccc34)CC2)CC1,0.85,·
O=S(=O)(NC1Cc2ccccc2C1)c1ccc(-c2csnn2)cc1,·,-1.5
O=c1[nH]c(Nc2nc3ccccc3s2)nc2c1CCCC2,·,-0.44
Clc1ccc(CSc2nc3ccncc3[nH]2)cc1,0.1,0.21
Cn1cc(NC(=O)N2CCc3ccccc3C2)c2ccccc2c1=O,-2.7,·
Cc1ccc2n1CCN(C(=O)Nc1ccc3c(c1)OCCO3)C2C(C)C (configuration not stated),-0.44,·
CCCc1cc(=O)n2nc(N3CCC(C(=O)NCCCN4CCCCC4)CC3)sc2n1,2,-0.62
C=CCNC(=O)c1c([N+](=O)[O-])cnn1C,0.49,-0.19
Cc1nc(-n2cccc2)sc1C(=O)NC1CCCc2ccccc21 (configuration not stated),-0.7,-1.7
Clc1ccccc1-c1nc2ccccc2[nH]1,0.71,-1.1
COCCNC(=O)C1=Cc2cc(Br)ccc2OC1,1.6,·
N#C/C(=C\Nc1ccc2c(c1)OCCO2)C(=O)c1ccc(Cl)cc1,·,-0.11
CCc1cccc(Nc2c(-c3ccc(C(C)C)cc3)c(=O)c2=O)c1,0.96,·
O=C(Nc1ccc(Br)cc1F)c1cc(-c2ccncc2)n[nH]1,1.4,·
O=C(Nc1cccc(OCc2cc(=O)n3nc(C4CC4)sc3n2)c1)C1CCCCC1,2.6,-1.1

Other results:
canonical_smiles,TAR Tat displ,CDC25B CDK2 inh
CC(=O)c1cccc(Nc2ncnc3ccc(Br)cc23)c1,·,-0.4
Fc1ccccc1CN1CCN(C2CCCC2)CC1,-1.1,-0.91
c1ccc2c(c1)CCN(c1ncnc3c1nc1n3CCCCC1)C2,-0.35,·
CCCOc1ccc(S(=O)(=O)n2cc(F)c(=O)[nH]c2=O)cc1,0.46,-0.69
Cc1ccccc1CN1C(=O)N(Cc2ccc(F)cc2)S(=O)(=O)c2ccccc21,0.61,·
c1ccc(-c2ccc(C(c3ccccc3)n3ccnc3)cc2)cc1 (configuration not stated),0.8&1.8,·
Cc1nc2nncn2c(N2CCN(c3ccccc3)CC2)c1C,0.78,-2.2
O=C1CC(C(=O)Nc2ccccc2Cl)n2ncnc2N1 (configuration not stated),1.3,-1.2
Cc1c(Br)sc2ccc(Cl)cc12,·,-2.9
O=c1[nH]cnc2nc(N3CCOCC3)sc12,0.37,-1.5
Cn1c(=O)c2c(nc3n(CC4CCCO4)c(-c4ccc(Cl)cc4)cn23)n(C)c1=O (configuration not stated),-0.84,-1.7
Cc1ccc2nc(C3=C(O)CN(c4ccc(Br)cc4)C3=N)[nH]c2c1,2.3,-0.71
Cc1cc(NC(=O)CSc2nc3c(c(=O)n2C)SCC3)no1,0.55,-0.38
FC(F)(F)c1cc(-c2ccco2)nc2c(-c3ccccc3)cnn12,-0.09,-0.21
Cc1ccc(-n2ncc3c(NCc4ccccn4)ncnc32)cc1C,0.17,·
COc1ccc(C2CC(=O)C3=C(C2)NC(C)=C(C(=O)OC(C)C)C3c2ccccn2)cc1 (configuration not stated),0.97,0.02
CSc1nn(CC(=O)NCc2ccccc2)c2nc3c(c(=O)n12)C(C)(C)Cc1ccccc1-3,-0.35,-1.8
O=S(=O)(c1ccc(-c2noc(-c3cc4cc(Cl)ccc4[nH]3)n2)cc1)N1CCCC1,1.1,·
COc1ccc(OC)c2[nH]c(=O)c(CCNC(=O)C(C)C)cc12,·,-0.89
Cc1ccc2cc3cc(C(=O)N4CCCC4)oc3nc2c1,·,-1.2
O=c1[nH]cc(NCc2ccccc2)c(=O)[nH]1,·,-0.23
COC(=O)CN=C/C(C(C)=O)=C(/C)O,·,-0.32
Clc1ccc(OCCN2CCN(c3ncnc4c3cnn4-c3ccccc3)CC2)cc1,2,·
C=CCn1c(SCC(=O)N2CCN(c3ccccc3)CC2)nc2c([nH]c3ccccc32)c1=O,1.5,·
COCCCOc1ccnc(CS(=O)c2nc3ccccc3[nH]2)c1C (configuration not stated),-0.46,·
Cc1nnsc1C(=O)OCc1cc(F)cc(F)c1,·,-1.5
Cc1ccc(S(=O)(=O)NCCc2csc(-c3ccc(F)cc3)n2)cc1,0.65,·
Cc1cc(=O)n2nc(N3CCCC(C(=O)NCCCN(C)C4CCCCC4)C3)sc2n1 (configuration not stated),0.78,-0.41
Cc1[nH]n(-c2cccc(Cl)c2)c(=O)c1N=O,·,-0.12
CN1C(=O)Cc2cc(S(=O)(=O)N3CCN(CCOc4ccc(Cl)cc4)CC3)ccc21,0.32,·
CC1(C)CC(=O)c2cnc(NC3OC(=O)c4ccccc43)nc2C1 (configuration not stated),·,-0.37
COC(=O)CN1C(=O)CSc2ccc(S(=O)(=O)Nc3ccc(F)cc3Cl)cc21,0.81,·
COc1ccc(NC(=O)C2CCCN(c3nc4ccsc4c(=O)s3)C2)cc1 (configuration not stated),1.1,-2.5
CC(C)CCNC(=O)C1(C)Cn2nc(C(=O)NCCN3CCCC3)cc2C(=O)N1C (configuration not stated),-1.7,·
Cc1cncn1CCc1nc2c3ccccc3nc(SCC(=O)c3ccc(F)cc3)n2n1,0.31,-3.5
C=CCn1c(SCC(=O)NCCCO)nc2sc(C)c(C)c2c1=O,1.6,-1.2
Cc1noc2ncn(CC(=O)NCc3ccco3)c(=O)c12,0.2,·
COc1ccccc1CN1CCN(C(=O)c2ccco2)CC1,·,0.91
CCC(C)N(CCNS(=O)(=O)c1ccc(-c2ccc(=O)[nH]n2)s1)Cc1ccco1 (configuration not stated),1.5,·
CCOc1ccc(OCC)c(NS(=O)(=O)c2ccc3c(c2)N(C)CCO3)c1,0.55,·
O=C(O)CCCCCC1CCNC(=O)N1 (configuration not stated),·,-0.46
CCC(=O)N(c1cc(C)cc(C)c1)C1C=CS(=O)(=O)C1 (configuration not stated),0.19,-0.46
CC(C)n1c(CN2CCN(c3cccc(Cl)c3)CC2)nc2c1c(=O)n(C)c(=O)n2C,-1.4,-0.59
COC(=O)c1sc2c(c1N)COC(C)(C)C2,0.5,-1
COC(=O)C(Cc1ccc(Cl)cc1Cl)S(=O)(=O)c1ccc(Cl)cc1 (configuration not stated),·,-0.88
Cn1c(=O)c2[nH]c([N+](=O)[O-])nc2n(C)c1=O,·,-2.1
CC(C)n1c(SCc2nc(-c3cccc(Cl)c3)no2)nc2cc3c(cc2c1=O)OCO3,1.6,·
N#Cc1cc2c(nc1SCC(=O)Nc1ccccc1)CCCC2=O,0.34,-1.5
Cn1c(C(=O)N2CCCC(C(=O)N3CCN(c4ccccn4)CC3)C2)cc2sccc21 (configuration not stated),2,-1.4
O=C(Cn1c(=O)oc2ccccc21)NCCCN(Cc1ccco1)C1CCCC1,2,·
CC1CCCC(N(C)C(=O)Cn2c(=O)oc3cc(S(=O)(=O)N4CCCC4)ccc32)C1C (configuration not stated),·,-2
CCS(=O)(=O)N1CCN(Cc2noc(CCC(=O)N3CCC(C)CC3)n2)CC1,0.37,·
Cc1oc2ncnc(N3CCOCC3)c2c1C(=O)NCCCN1CCN(C)CC1,0.9,·
NC(=O)c1c(NC(=O)c2nn(-c3cccc(Cl)c3)ccc2=O)sc2c1CCCC2,-0.82,-1.8
CCN(CC)c1ccc(C2C3=C(CC(C)(C)CC3=O)Nc3cc4c(cc32)OCO4)cc1 (configuration not stated),-1.9,-1.6
CCOC(=O)C(C)OC(=O)c1cnn2c(C(F)(F)F)cc(-c3ccccc3OC)nc12 (configuration not stated),1.8,-0.38

The list continues.
canonical_smiles,TAR Tat displ,CDC25B CDK2 inh
O=C(O)c1nc2ccccc2nc1C(=O)O,0.47,-0.06
CCOc1cc(C2Nc3cc(C)c(C)cc3NC3=C2C(=O)CC(C)(C)C3)ccc1O (configuration not stated),-3.8,-2.4
O=c1c(O)c(NCc2ccccc2Cl)c1=O,-0.01,·
Cc1ccc(-c2cc(Nc3ccc4c(c3)OCO4)nc(C)n2)cc1,-0.99,1.4
CCCN1C(=O)C2(c3ccccc31)c1c(oc3ccc(C)cc3c1=O)C(=O)N2CCOC (configuration not stated),1.7,-0.32
Cc1[nH]c(C)c(S(=O)(=O)Nc2ccc(F)c(Cl)c2)c1C(=O)N1CCCC1,-0.7,·
Cc1ccc(Nc2ncnc3c2nc2n3CCCC2)c(Br)c1,1.9,·
O=C(CSc1nccn(-c2ccc(F)cc2)c1=O)NCc1ccco1,-0.79,·

One compound at a time, as listed above. Values in the order: TAR Tat displ, CDC25B CDK2 inh
`CCOc1cc(C2Nc3cc(C)c(C)cc3NC3=C2C(=O)CC(C)(C)C3)ccc1O` (configuration not stated) in the list: -3.8, -2.4
`O=C(O)c1nc2ccccc2nc1C(=O)O` in the list: 0.47, -0.06
`O=c1c(O)c(NCc2ccccc2Cl)c1=O` in the list: -0.01, ·
`CCCN1C(=O)C2(c3ccccc31)c1c(oc3ccc(C)cc3c1=O)C(=O)N2CCOC` (configuration not stated) in the list: 1.7, -0.32

The results go on:
canonical_smiles,TAR Tat displ,CDC25B CDK2 inh
Cc1nn(-c2nc3ccccc3o2)c(C)c1Sc1nnc(N)s1,2.7,·
Cc1nn(-c2nc3ccccc3n2C)c2c1C(c1cc(Br)ccc1F)CC(=O)N2 (configuration not stated),2.3,·
O=C(Nc1ccc(Br)cc1F)C1(c2cccs2)CCOCC1,2.2,·
Cc1ccc(-c2[nH]ncc2CNc2cc(C)ccc2C)cc1,1.2,0.38

From PubChem
